PMP22 txn = Cell-based coincidence reporter assay to measure PMP22 gene transcription in S16 Pmp22-F2sN cells - Primary screen; Potency, µM (highest dose often 57.5 µM), for the others: at the top dose activity change, negative = inhibition, hits mostly inhibitors; S16 Pmp22-F2sN Schwann cells (luciferase reporters placed in the Pmp22 gene), FLuc/NLuc coincidence luminescence, 24 h; 43,000 compounds, 2% hits; AID 1508649, 2021; active = clear falling dose curves in both reporters; inconclusive = both reporters move, but less clearly or upward; inactive = either reporter flat; the % is the NLuc reporter signal; also: % is scaled to controls: 0 for no effect and ±100 for the full control effect; some results filed as inactive show a strong effect at the top dose
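S16 Schwann cells carrying FLuc/NLuc coincidence reporter in the Pmp22 3' UTR treated with compound 24 h at 37C; FLuc then NLuc luminescence read sequentially by dual-luciferase reagents.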
HTT promoter inh = Primary qHTS for Identification of Small Molecule Inhibitors of Huntingtin Promoter Activity. HEK293 HTT promoter firefly luciferase reporter (activity 0% = vehicle and -100% = no light), 24 h. 48,000 compounds, 0.93% hits. Potency, µM (titrated, usually from 57.5 µM), for inactives: at the highest dose activity change, negative = inhibition, most hits filed as inhibitors; active = well fitted inhibition curve with a large enough effect; inconclusive = small, poorly fitted or top-dose-only effect; inactive = no such curve, though single readings can be large or run the other way; also: nearly all actives have a fitted effect of over 50% in size
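Luminescence was read after Dual-Glo reagent and a 10 min room-temperature incubation. Values were normalized to vehicle (0% activity) and zero RLU (-100% activity). Reporter HEK293 cells had been exposed to compounds (up to 57.5 uM final) for 24 h.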
Active calls of the source: *; ? = inconclusive; / = not tested or not shown; [ ] = remark or other dose. Potency is read from the fitted curve at half-maximal effect.

SMILES	PMP22 txn	HTT promoter inh
COc1ccccc1CNC(=O)c1ccc(NC(=O)N2CC(C)Sc3ccccc32)cc1 (centres undefined)	-6%	-27%
O=C(Nc1cc2c(cc1C(=O)c1ccccc1Br)OCCO2)c1cccc(Cl)c1	-1%	2%
CCOc1ccccc1CNC(=O)c1cccn1-c1nnc(N2CCCCC2)s1	?	-24%
Cc1ccc(Cn2cccc2C2=NC(C)(C)CO2)cc1	3%	-7%
COc1ccc(CCC(=O)NCc2nc3cccnc3n2Cc2ccc(OC)cc2)cc1	2%	2%
CN(C)C1(CNC(=O)COc2ccc(C(C)(C)C)cc2)CCCCC1	-22%	-15%
CCc1cccc(C)c1NC(=O)c1cnn(-c2ccc(OC)cc2)c1C1CCN(C(=O)OC(C)(C)C)CC1	?	?
CN(C)c1ccc(CNC(=O)CCCN2C(=O)c3cccnc3Oc3ccc(Cl)cc32)cc1	-15%	-2%
Cc1ccc(-n2nc(CO)c(C(=O)NCCc3ccccc3)n2)cc1	-2%	-8%
Cc1ccccc1Cn1c(=O)n(CCC(=O)NCc2ccco2)c(=O)c2sccc21	9%	-1%
COc1cc(-c2nc(S(=O)(=O)c3ccc(Br)cc3)c(N3CCOCC3)o2)cc(OC)c1OC	-19%	-7%
Cc1ccc(-c2nn(CC(=O)NC3CCCC3)c3c2cnc2ccccc23)cc1	?	5%
Cc1cc(NC(=O)CCNS(=O)(=O)c2ccc3c(c2)oc(=O)n3C)ccc1Br	-5%	-15%
Cc1ccc(NC(=O)N2CCN(c3ccc(Cl)c(Cl)c3)CC2)cc1	?	?
Cc1cc(-c2nc3ncccc3o2)ccc1NC(=O)COc1ccccc1C	?	6%
CCOc1ccccc1NC(=O)C1CCN(S(=O)(=O)c2ccc3c(c2)CC(C)N3C(C)=O)CC1 (centres undefined)	-10%	0%
O=C(c1ccc(CSc2nc3ccncc3n2Cc2cccc(F)c2)cc1)N1CCCCC1	-22%	?
CC1=C(c2ccc(C)cc2)S(=O)(=O)N(Cc2ccc(C(=O)NCc3ccccc3F)cc2)C1=O	-15%	?
COc1cc(OC)cc(-n2c(=O)c3sccc3n(Cc3ccc(F)cc3)c2=O)c1	13%	-4%
Cc1cc(C)nc(-n2nc(C)c3c2N(Cc2ccccc2F)C(=O)CC3c2ccc(Cl)cc2)n1 (centres undefined)	-5%	-12%
CCOC(=O)c1cc(-c2ccc(F)cc2)n(CCC(=O)NCc2ccccc2OC)c1C	-2%	?
CCc1ccc(NC(=O)c2sc3nc(C)c(Cl)c(C)c3c2NC(=O)c2ccccc2OC)cc1	2%	1%
CCOC(=O)CSc1nc(-c2ccccc2)cc(C(F)(F)F)c1C#N	-25%	-4%
CCc1cccc(NC(=O)Nc2csc3c2CCCC3)c1	-2%	?
O=C(CCCCn1c(=O)c2ccccc2n(CC(=O)Nc2cccc(F)c2)c1=O)NCCc1ccccc1	?	-10%
Cn1c(=O)oc2cc(S(=O)(=O)NC(Cc3ccccc3)C(=O)Nc3ccc(F)c(Cl)c3)ccc21 (centres undefined)	-2%	-22%
CCOc1ccccc1NC(=O)c1sc2nc3c(cc2c1N)CN(Cc1ccccc1)CC3	?	-2%
Cc1cccc(NC(=O)c2ccc(CN3CC(=O)N4CCCCC4C3=O)cc2)c1C (centres undefined)	-7%	-27%
CCc1ccc(NC(=O)C2CCN(S(=O)(=O)c3c(C)noc3/C=C\c3ccc(OC)cc3)CC2)cc1	-18%	-16%
CCC(=O)Nc1sc2c(c1C(=O)Nc1ccc(Br)cc1)CCCCC2	?	-12%
Cc1ccc(/C=C/C(=O)Nc2ccccc2C(N)=O)o1	-6%	60%[activator]
O=C(Nc1ccc(F)cc1)Nc1csc2c1CCCC2	?	-4%
O=C(CN(CCc1ccccc1)S(=O)(=O)c1ccc(Br)cc1)NCc1ccc(Cl)cc1	-23%	-20%[11.5 µM]
CC1=C(c2ccc(C)cc2)S(=O)(=O)N(Cc2ccc(C(=O)Nc3ccccc3C)cc2)C1=O	?	?
Cc1cccc(-c2noc(-c3cccnc3NCc3ccc(Cl)cc3)n2)c1	-16%	6%
Cc1ccc(C(=O)Nc2ccc(S(=O)(=O)Nc3onc(C)c3C)cc2)cc1	-10%	0%
COc1ccc(NC(=O)Cn2c(=O)n(CCC(=O)NCc3ccccc3OC)c(=O)c3ccccc32)cc1Cl	15µM*	-10%
COCC(=O)Nc1c(I)c(C(=O)NCC(O)CO)c(I)c(C(=O)N(C)CC(O)CO)c1I (centres undefined)	/	5%
Cc1cccc(N2CCN(C(=O)C3CCN(S(=O)(=O)c4ccc5c(c4)oc(=O)n5C)CC3)CC2)c1C	20µM*	?
CCc1ccc(-c2[nH]c3c(c2-c2sc(C)c(C(=O)OC)c2O)c(=O)[nH]c(=O)n3C)cc1	-4%	-5%
CCOC(=O)CCn1c(=O)c2cccn2c2cccnc21	-15%	-5%
CCOC(=O)C1CCN(C(=O)CN2c3ccc(C(C)C)cc3-c3ccccc3S2(=O)=O)CC1	-11%	9%
Cc1ccc(Cn2c(CO)cnc2SCC(=O)Nc2cccc(F)c2)cc1	-10%	-24%
O=C(CSc1nc2ccsc2c(=O)n1-c1ccc(Br)cc1)NCc1ccccc1	?	-15%
CCCCCn1c(=N)c(S(=O)(=O)c2ccc(C)cc2)cc2c(=O)n3cc(C)ccc3nc21	-2%	5%
O=S(=O)(NCC(c1cccs1)S(=O)(=O)c1ccccc1)c1ccccc1 (centres undefined)	15µM*	-24%
CC(=O)Nc1ccc(S(=O)(=O)N2CCC(c3nnnn3-c3ccccc3)CC2)cc1	-15%	?
Cc1cccc(Cc2c(C)nc3nc(SCc4ccccc4C)nn3c2C)c1	?	-13%
Cc1ccc(-c2c(C)n3c4c(=O)n(C)c(=O)n(C)c4nc3n2CCCO)cc1	?	10µM*
CCN(CC)CCCNC(=O)c1nn(-c2ccc(OC)cc2)c(=O)c2c1c1ccccc1n2C	?	-8%
CC1=C(C(=O)OCc2ccc(C)cc2)C(c2ccccc2C(F)(F)F)CC(=O)N1 (centres undefined)	-1%	-28%
Cc1cc(C)cc(OC(=O)c2cc(-c3ccc4c(c3)OCCO4)on2)c1	-9%	11%
O=C(CCS(=O)(=O)c1ccccc1)N(Cc1cccnc1)c1nc2ccc(Cl)cc2s1	?	0%
Cc1ccc(CNC(=O)COCc2cc(-c3ccc4c(c3)OCO4)on2)cc1	-22%	-20%
CCC(=O)N1c2ccccc2CC1C(=O)NCCCN1CCN(c2cccc(Cl)c2)CC1 (centres undefined)	?	2%
Clc1cccc(C2=NC(c3cccs3)=Nc3ccc(Br)cc3N2)c1	-10%	-13%
O=C(CCn1cnc2onc(-c3ccc(F)cc3)c2c1=O)N1CCN(c2ccc(F)cc2)CC1	?	-13%
CC(C)(C)OC(=O)N1CCC(c2c(C(=O)NC3CCN(Cc4ccccc4)CC3)cnn2-c2cccc(F)c2)CC1	?	-8%
O=C(Nc1cccc(Nc2ncc(Br)c(NCCc3cnc[nH]3)n2)c1)N1CCCC1	/	?
O=C(CC1N=C2c3ccccc3N=C(SCc3ccc(Cl)cc3)N2C1=O)NCCc1ccccc1 (centres undefined)	?	?

(continued)
SMILES	PMP22 txn	HTT promoter inh
COc1cc(OC)cc(-c2nc(-c3ccc4c(c3)[nH]c(=O)n4C)no2)c1	2%	-7%
CC(=O)c1cccc(Nc2nc(-c3cccc(C)c3)nc3ccccc23)c1	?	?
COc1cc(SC)ccc1C(=O)N1CCn2c3c(c4cc(C)ccc42)CCCC31 (centres undefined)	5%	-9%
CCOc1ccc(C(=O)c2cn(Cc3ccc(OC)cc3)c3cc(OC)c(OC)cc3c2=O)cc1	-15%	-23%
Cc1cccc(NC(=O)CSc2nc3ccc(NC(=O)c4cccs4)cc3s2)c1	?	-2%
Cc1cccc(-c2cc(-c3ccccc3)nc(SCC(=O)Nc3ccccc3)c2C#N)c1	?	-3%
COc1ccc(S(=O)(=O)NCc2nc3nc(C)cc(C)n3n2)cc1	?	6%
CCCOc1ccc(OC(=O)c2cn(-c3ccc(OC)cc3)c(=O)c3ccccc23)cc1	?	-14%
CCN(CC)S(=O)(=O)c1ccc2c(c1)N(CC(=O)NCCCN1CCN(c3ccccc3F)CC1)C(=O)CO2	-38%	-4%
COC(=O)c1ccc(NC(=O)CSc2n[nH]c(CC(C)C)n2)cc1	13%	-26%
COc1ccc(-c2cc(C(F)(F)F)n3nc(-c4ccccc4)cc3n2)cc1OC	?	-2%
COc1ccc(Cl)cc1NC(=O)C(=O)NCc1ccc(Cl)cc1	-12%	-14%[11.5 µM]

Part of the list above in order of length of the SMILES, lowest first.
SMILES	PMP22 txn	HTT promoter inh
COc1ccc(Cl)cc1NC(=O)C(=O)NCc1ccc(Cl)cc1	-12%	-14%[11.5 µM]
COc1ccc(S(=O)(=O)NCc2nc3nc(C)cc(C)n3n2)cc1	?	6%
CC(=O)c1cccc(Nc2nc(-c3cccc(C)c3)nc3ccccc23)c1	?	?
Cc1cccc(NC(=O)CSc2nc3ccc(NC(=O)c4cccs4)cc3s2)c1	?	-2%
COc1ccc(-c2cc(C(F)(F)F)n3nc(-c4ccccc4)cc3n2)cc1OC	?	-2%
COc1cc(OC)cc(-c2nc(-c3ccc4c(c3)[nH]c(=O)n4C)no2)c1	2%	-7%
CCN(CC)S(=O)(=O)c1ccc2c(c1)N(CC(=O)NCCCN1CCN(c3ccccc3F)CC1)C(=O)CO2	-38%	-4%

Next part.
SMILES	PMP22 txn	HTT promoter inh
CCCNC(=O)c1c2c(nc3ccccc13)C(=O)N(C1CCCCC1)C2	-8%	-4%
CCCN1CCN(CCNC(=O)Nc2cc(C)ccc2OC)CC1	5%	-15%
CCCCOC(=O)c1ccc(NC(=O)c2ccc3c(c2)CCCN3S(C)(=O)=O)cc1	13%	5µM*
O=C(COc1ccc([N+](=O)[O-])cc1)N1CCC(c2nc3ccccc3s2)CC1	?	?
CCc1ccc(OCC(=O)N(Cc2ccc(OC)cc2)C2CCS(=O)(=O)C2)cc1 (centres undefined)	-11%	-8%
CCc1c(C)c(C#N)c2nc3ccccc3n2c1Nc1cccc(C(F)(F)F)c1	-4%	-17%
Cc1ccc(CN2c3ccccc3-c3nc(SCC(=O)Nc4c(C)cc(C)cc4C)ncc3S2(=O)=O)cc1	?	-12%
COc1ccc(C2=C(C)C(=NCCCN3CCN(c4cc(C)ccc4C)CC3)NS2(=O)=O)cc1	15µM*	?
CC1=C(C(=O)N2CCN(c3cccc(Cl)c3)CC2)C2(CCCCC2)OC1=O	-28%	-13%
Cc1cccc(NC(=O)CSc2nnc(NC(=O)Nc3ccccc3)s2)c1C	?	-9%
CC(=O)OCC(=O)[C@@]1(OC(C)=O)[C@@H](C)C[C@H]2[C@@H]3C[C@H](F)C4=CC(=O)C=C[C@]4(C)[C@@]3(F)[C@@H](O)C[C@@]21C	/	-6%
COc1ccc(OCCSc2nc(C)c(Cc3ccccc3)c(=O)[nH]2)cc1	-29%	-11%
CCc1ccc(OCC(=O)Nc2cc3oc4ccccc4c3cc2OC)cc1	6.4µM*	2%
COc1ccc(N(CC(=O)NCc2ccc(C)cc2)S(=O)(=O)c2c(C)[nH]c(=O)[nH]c2=O)cc1	-37%	-8%
Cc1cc(C)c2oc(C(=O)N(Cc3ccc(F)cc3)C3CCS(=O)(=O)C3)cc(=O)c2c1 (centres undefined)	-20%	-9%
NCCc1nnc(SCc2ccc(Cl)cc2)o1	-3%	-2%
CCC(=O)N1c2ccc(S(=O)(=O)NCc3cccc(OC)c3)cc2CC1C (centres undefined)	?	?
COc1ccc(-c2nc3ccc(Cl)cn3c2Nc2ccc(C)cc2)cc1	-24%	5%
CCC(Cn1nnc2ccccc2c1=O)NC(=O)Nc1ccc(C)cc1C (centres undefined)	5%	-14%
CCN(CC)C(=O)CSc1cn(CC(=O)N2CCCCCC2)c2ccccc12	-20%	-8%
Cc1ccc(C)c(N2CCN(C(=O)c3c4c(nc5ccccc35)C(=O)N(C3CCCCC3)C4)CC2)c1	?	-30%
CCOCCCNC(=O)C1CCC(CNS(=O)(=O)c2ccc(NC(C)=O)cc2)CC1 (centres undefined)	-23%	2%
CC(Oc1ccccc1)C(=O)Nc1c(C(=O)Nc2cccc(F)c2)oc2ccccc12 (centres undefined)	29%	-18%
Cc1ccccc1Cn1c2ccccc2c2cnn(CC(=O)NCC(C)c3ccccc3)c(=O)c21 (centres undefined)	5%	0%
Cc1cc2ccccc2n1CCNC(=O)c1cccc(Cl)c1	?	-21%
Cc1ccc(-c2csc(-c3cc4c([nH]c3=O)CC(c3ccccc3)CC4=O)n2)cc1 (centres undefined)	6.3µM*	?
COc1ccc(Cl)cc1NC(=O)CSc1cc(C)[nH]c(=O)n1	?	-14%
Cc1ccccc1OCC(=O)Nc1ccc(OCc2cc(=O)n3ccsc3n2)cc1	6%	-8%

One compound at a time, as listed above. Values in the order: PMP22 txn, HTT promoter inh
`COc1ccc(Cl)cc1NC(=O)CSc1cc(C)[nH]c(=O)n1` as listed: ?, -14%
`Cc1ccccc1OCC(=O)Nc1ccc(OCc2cc(=O)n3ccsc3n2)cc1` as listed: 6%, -8%
`Cc1ccc(-c2csc(-c3cc4c([nH]c3=O)CC(c3ccccc3)CC4=O)n2)cc1` (centres undefined) as listed: 6.3µM*, ?
`Cc1cc2ccccc2n1CCNC(=O)c1cccc(Cl)c1` as listed: ?, -21%
